Cruzain inh noDet = cruzain (T. cruzi) inhibition without detergent. P25779. purified cruzain, Z-FR-AMC fluorescence, no detergent. Potency, µM, inactives show max response, negative = inhibition, hits mostly inhibitors. hit rate 2.3% among 200,000; active = well fitted curve in the direction sought with a large enough effect; inconclusive = small, poorly fitted or top-dose-only effect, or another doubt; inactive = no such curve, though single readings can be large; an effect the other way counts as inactive or inconclusive;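 note: plate controls were enzyme without inhibitor for no effect and buffer without enzyme for full effect; nearly all actives have a fitted effect of over 40% in size; top concentration of the series not given in the record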
Target sequence (P25779 123-467 limits assumed): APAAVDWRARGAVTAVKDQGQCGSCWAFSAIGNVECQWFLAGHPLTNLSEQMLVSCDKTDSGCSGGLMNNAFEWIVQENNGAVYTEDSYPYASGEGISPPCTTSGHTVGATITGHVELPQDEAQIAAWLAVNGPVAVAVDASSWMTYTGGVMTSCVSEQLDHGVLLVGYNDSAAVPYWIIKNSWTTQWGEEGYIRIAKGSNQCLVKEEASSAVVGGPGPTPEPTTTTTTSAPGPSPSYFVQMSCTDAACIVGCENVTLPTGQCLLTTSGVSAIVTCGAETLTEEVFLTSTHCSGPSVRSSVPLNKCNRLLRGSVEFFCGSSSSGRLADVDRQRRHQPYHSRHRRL
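Detergent-free condition (0.00005% Triton X-100) in acetate buffer pH 5.5 with DTT. 1.5 nM enzyme and compound were pre-mixed 15 min, then 2 uM Z-FR-AMC substrate added; reaction progress from fluorescence change between first and third reads (60 s).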
StopGo reporter = lowers the luciferase signal of an FMDV 2A StopGo reporter | human cells with a luciferase reporter of 2A StopGo recoding; control for the full effect not named in the record | Potency, µM (top dose mostly 57.9 µM), without a hit: top-dose signal change, negative = less light | hit rate 1.2% among 410,000; active = well fitted falling curve with a large enough effect; inconclusive = small, poorly fitted or top-dose-only effect; inactive = no such curve, though single readings can be large or run the other way; tested in HEK293T cells; note: % is set by controls: 0 for no effect and ±100 for the full control effect; nearly all actives have a fitted effect of over 45% in size; luciferase light after 4 h
MARV entry inh = blocks Marburg virus binding to or entry into cells; hit rate 1.8% among 300,000; Marburg virus pseudotyped entry inhibition, cell reporter; control for the full effect not named in the record; about a third of the inactives were read at about 46 µM; Potency, µM (highest dose often 37.8 µM), for inactives: at the top dose activity change, negative = inhibition, actives largely listed as inhibitors; active = well fitted inhibition curve with a large enough effect; inconclusive = small, poorly fitted or top-dose-only effect, or effect the other way; inactive = flat fitted curve, though single readings scatter; tested in HEK293 cells; about a fifth of its hits are not listed in these tables; note: % is set by controls: 0 for no effect and ±100 for the full control effect; luciferase read-out
NS1 inh = influenza NS1 inhibition. S. cerevisiae slowed by influenza A NS1, growth recovery by OD600. Potency, µM (top dose mostly 46.1 µM), without a hit: at the top dose activity, positive = more growth. hit rate 0.4% among 270,000. AID 2326; note: actives are rising curves; nearly all actives have a fitted effect of over 50% in size
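Compounds were scored for reversing the slow growth caused by influenza A NS1 in S. cerevisiae, measured by optical density at 600 nm. Assay medium contained 2% galactose at pH 6.0; NS1-free yeast of the same strain were the positive control.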
SARS PLpro yeast = inhibitors of SARS-CoV papain-like protease in yeast | S. cerevisiae expressing SARS-CoV PLpro, growth rescue; control for the full effect not named in the record | hit rate 0.19% among 330,000 | Potency, µM (doses to about 32.9 µM), for inactives: at the highest dose activity, positive = growth rescue; note: 0% is about no effect; nearly all actives have a fitted effect of over 55% in size; growth read by luminescence after 48 h
LASV entry inh = blocks Lassa virus binding to or entry into cells. hit rate 1.2% among 300,000. Lassa virus pseudotype entry inhibition, cell reporter; control for the full effect not named in the record. Potency, µM (doses to about 37.9 µM), for inactives: top-dose activity change, negative = inhibition, actives largely listed as inhibitors; active means well fitted inhibition curve with a large enough effect; inconclusive means small, poorly fitted or top-dose-only effect, or effect the other way; inactive means flat fitted curve, though single readings scatter; tested in HEK293 cells; note: % is set by controls: 0 for no effect and ±100 for the full control effect; nearly all actives have a fitted effect of over 50% in size; luciferase read-out
Cruzain Triton = cruzain (T. cruzi) inhibition with detergent; P25779; purified cruzain, Z-FR-AMC fluorescence, 0.01% Triton; Potency, µM, inactives show max response, negative = inhibition, hits mostly inhibitors; hit rate 0.43% among 200,000; active = well fitted curve in the direction sought with a large enough effect; inconclusive = small, poorly fitted or top-dose-only effect, or another doubt; inactive = no such curve, though single readings can be large; an effect the other way counts as inactive or inconclusive;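 note: plate controls were neutral wells for no effect and buffer without enzyme for full effect; nearly all actives have a fitted effect of over 40% in size; top concentration of the series not given in the record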
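Z-FR-AMC hydrolysis (2 uM substrate) by cruzain (1.5 nM) monitored kinetically at ex 360/em 450 nm after 15 min room-temperature compound exposure; 0.01% Triton X-100, pH 5.5, 5 mM DTT.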
RE007 growth inh = less growth of the S. pombe RE007 Vpr strain | hit rate 0.21% among 360,000 | AID 651644 | Potency, µM (highest dose often 92.2 µM), for inactives: at the highest dose activity change, negative = less growth | S. pombe RE007 Vpr strain, BacTiter-Glo ATP luminescence, 24 h; control for the full effect not named in the record; active = well fitted falling curve with a large enough effect; inconclusive = small, poorly fitted or top-dose-only effect; inactive = no such curve, though single readings can be large or run the other way;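 note: % is set by controls: 0 for no effect and ±100 for the full control effect; nearly all actives have a fitted effect of over 50% in size; the assay follows cell death caused by Vpr and the record does not say whether a fall means rescue or toxicity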
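Fission yeast RE007 carrying one integrated HIV-1 vpr copy, seeded at OD 0.01 in PMG+AL medium with 23 nL pinned compound. Grown 24 h at 30 degrees; viability read by BacTiter-Glo luminescence after 5 min.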
Numbers without * were called inactive; & = joins results of further samples; [ ] = dose if it differs, or a comment. Unless noted, calls come from the whole dose curve; as a rule, active means well fitted rising curve with a large enough effect; inconclusive means small, poorly fitted or top-dose-only effect; inactive means no such curve, though single readings can be large or run the other way. Potency is the fitted concentration of half-maximal effect.

What do the screens show for `CC(C)Cn1c(SCC(=O)N2CCCc3ccccc32)nc2ccccc2c1=O`?
StopGo reporter: inconclusive; MARV entry inh: inconclusive; NS1 inh: 11%; SARS PLpro yeast: 0%; LASV entry inh: inconclusive; RE007 growth inh: 3%

What do the screens show for `CC(=O)Nc1c(C(=O)O)ccc(C)c1OCc1ccccc1`?
StopGo reporter: -1%; MARV entry inh: 4%; LASV entry inh: 26%; RE007 growth inh: -5%

Results for CCOc1ccccc1C(=O)N(C)Cc1cc2cc(OC)ccc2[nH]c1=O ?
Cruzain inh noDet: 2%; StopGo reporter: -13%; MARV entry inh: -23%; NS1 inh: 5%; SARS PLpro yeast: -3%; LASV entry inh: -12%; Cruzain Triton: -3.6%; RE007 growth inh: 0%

What do the screens show for `CSc1nsc(SC)c1C(=O)NC(=O)Nc1cccnc1`?
StopGo reporter: -2%; NS1 inh: -5%; SARS PLpro yeast: -1%; RE007 growth inh: 1%

What do the screens show for `CCOC(=O)C1CCN(Cc2ccc(Cl)nc2)CC1`?
StopGo reporter: -10%; MARV entry inh: inconclusive; NS1 inh: 5%; SARS PLpro yeast: 1%; LASV entry inh: 3%[46.1 µM]; RE007 growth inh: 7%

How did COc1cc(/C=C2\CCc3c2nc2ccccc2c3C(=O)O)cc(OC)c1OC do in these assays?
StopGo reporter: 33%[activator]; NS1 inh: 3%; SARS PLpro yeast: 1%; RE007 growth inh: -11%

What do the screens show for `COc1ccc(CN2C(=O)C(C)S/C2=N/N=C/c2ccco2)cc1` (stereo not given)?
StopGo reporter: 47%[activator]; NS1 inh: -9%; SARS PLpro yeast: -3%; RE007 growth inh: 2%

What do the screens show for `Cc1nc2c(c(C)nn2-c2ccccc2)c(C)c1CCC(=O)NCCc1ccc(Cl)cc1`?
Cruzain inh noDet: 8%; StopGo reporter: inconclusive; MARV entry inh: 24%[46.1 µM]; LASV entry inh: 6%[46.1 µM]; Cruzain Triton: -2.7%

What do the screens show for `COc1ccccc1OCC(=O)c1[nH]c(C)c(C(C)=O)c1C`?
Cruzain inh noDet: 1%; StopGo reporter: 20µM*; MARV entry inh: inconclusive; NS1 inh: -11%; SARS PLpro yeast: -4%; LASV entry inh: inconclusive; Cruzain Triton: -4.2%; RE007 growth inh: 3%

Results for O=C(CSc1nc2ccccc2c2nc(-c3ccccc3)nn12)Nc1ccc(Br)cc1 ?
Cruzain inh noDet: 2%; StopGo reporter: -24%; LASV entry inh: 22%[46.1 µM]; Cruzain Triton: 2.3%

What do the screens show for `O=C(Cn1c(=O)n(Cc2ccco2)c(=O)c2ccc(C(=O)NC3CCCC3)cc21)Nc1ccc(F)cc1`?
Cruzain inh noDet: 9%; StopGo reporter: 11%; MARV entry inh: -20%[46.1 µM]; LASV entry inh: 3%[46.1 µM]; Cruzain Triton: -2.6%

How did Cc1cc(C)c(S(=O)(=O)N2CCCC2=O)c(C)c1 do in these assays?
StopGo reporter: 7%; MARV entry inh: 14%[46.1 µM]; NS1 inh: -6%; SARS PLpro yeast: 1%; LASV entry inh: -3%; RE007 growth inh: 8%

How did NC(=O)C1=CC2C3C=CC2(O)C(=O)OC3O1 (stereo not given) do in these assays?
StopGo reporter: inconclusive; MARV entry inh: inconclusive; LASV entry inh: 7.1µM*; RE007 growth inh: -5%

How did O=S(=O)(c1cccc(F)c1)N1CCN(C(=S)NCc2ccccc2)CC1 do in these assays?
StopGo reporter: 25%; MARV entry inh: 1%[46.1 µM]; SARS PLpro yeast: -1%; RE007 growth inh: 3%

What do the screens show for `Cn1c(SCC(=O)NCC2CCCO2)nnc1-c1c[nH]c2ccccc12` (stereo not given)?
Cruzain inh noDet: 2%; StopGo reporter: inconclusive; NS1 inh: 17%; SARS PLpro yeast: -1%; Cruzain Triton: -2.6%; RE007 growth inh: -3%

Results for Cc1ccc(-n2c(=O)c3oc4ccccc4c3n(Cc3ccccc3F)c2=O)cc1C ?
Cruzain inh noDet: -2%; StopGo reporter: 6%; LASV entry inh: 7%[46.1 µM]; Cruzain Triton: 0.6%

Results for COc1ccc(-n2ncc3c2CC(C)(C)CC3NC(=O)CCC2=NNC(=O)CC2)cc1 (stereo not given) ?
StopGo reporter: -9%; NS1 inh: 3%; SARS PLpro yeast: 2%; RE007 growth inh: 0%

What do the screens show for `COc1ccc(-c2c(C)nn3c(C(F)(F)F)cc(-c4ccc(C)cc4)nc23)cc1`?
Cruzain inh noDet: -7%; StopGo reporter: -9%; MARV entry inh: -12%[46.1 µM]; LASV entry inh: -8%[46.1 µM]; Cruzain Triton: -1.0%

How did O=[N+]([O-])c1ccc(NCCCNS(=O)(=O)c2ccccc2)c(Cl)c1 do in these assays?
Cruzain inh noDet: 7%; StopGo reporter: -16%; MARV entry inh: inconclusive; NS1 inh: -33%; SARS PLpro yeast: -18%; LASV entry inh: -23%; Cruzain Triton: -5.2%; RE007 growth inh: 10%

Results for COc1ccc(/C=N/NC(=S)NCC2CCCO2)cc1 (stereo not given) ?
StopGo reporter: -2%; MARV entry inh: 10%; NS1 inh: -5%; SARS PLpro yeast: 22%; LASV entry inh: inconclusive; RE007 growth inh: 1%

What do the screens show for `Cc1ccc(OC(=O)COc2ccccc2)c(-n2nc3ccccc3n2)c1`?
Cruzain inh noDet: -3%; StopGo reporter: 39%[activator]; MARV entry inh: inconclusive; NS1 inh: 1%; SARS PLpro yeast: 7%; LASV entry inh: 21%; Cruzain Triton: -2.9%; RE007 growth inh: -3%

What do the screens show for `CC(=O)c1ccc2c(c1)CCN2`?
StopGo reporter: 0%; MARV entry inh: inconclusive; LASV entry inh: 3%; RE007 growth inh: 4%

What do the screens show for `CC(=O)Nc1ccc(S(=O)(=O)c2ccc(N)cc2)cc1`?
Cruzain inh noDet: 1%; StopGo reporter: -12%; NS1 inh: 0%; SARS PLpro yeast: -3%; Cruzain Triton: 3.5%; RE007 growth inh: -6%[18.4 µM]

What do the screens show for `Cc1ccc(SCc2ccc(C(=O)NCc3cccnc3)cc2)cc1`?
Cruzain inh noDet: 16%; StopGo reporter: -17%; MARV entry inh: inconclusive; NS1 inh: -12%; SARS PLpro yeast: -9%; LASV entry inh: -2%; Cruzain Triton: -4.8%; RE007 growth inh: 20%

What do the screens show for `CCC(C(=O)OC)n1cnc2c(cnn2-c2ccc(Cl)cc2)c1=O` (stereo not given)?
Cruzain inh noDet: -2%; StopGo reporter: inconclusive; MARV entry inh: 1%; NS1 inh: 2%; SARS PLpro yeast: inconclusive; LASV entry inh: -7%; Cruzain Triton: 3.3%; RE007 growth inh: -11%

What do the screens show for `COc1ccc(-c2csc3ncn(CC(=O)N4CCOCC4)c(=O)c23)cc1`?
StopGo reporter: -3%; MARV entry inh: -9%; NS1 inh: 5%; SARS PLpro yeast: 1%; LASV entry inh: 1%; RE007 growth inh: 7%

How did O=C(O)CC/C(=N/NC(=O)CNC(=O)Cc1ccccc1)c1ccccc1 do in these assays?
StopGo reporter: -17%; NS1 inh: 5%; SARS PLpro yeast: 3%; RE007 growth inh: 9%

Results for CC(=O)NC(CC(=O)Nc1ccc(S(=O)(=O)Nc2nccs2)cc1)c1ccccc1 (stereo not given) ?
StopGo reporter: 3%; MARV entry inh: 13%; SARS PLpro yeast: 0%; LASV entry inh: -1%; RE007 growth inh: -12%

What do the screens show for `COc1cccc(-c2cc3nc4c(c(N5CCC6(CC5)OCCO6)n3n2)CCCC4)c1`?
Cruzain inh noDet: 27%; MARV entry inh: inconclusive; NS1 inh: -59%; SARS PLpro yeast: -15%; LASV entry inh: -18%; Cruzain Triton: -4.5%; RE007 growth inh: -7%

Results for CN1CCN(c2ccc([N+](=O)[O-])cc2/C=N/NC(=O)c2ccc(F)cc2)CC1 ?
Cruzain inh noDet: -8%; StopGo reporter: -1%; MARV entry inh: inconclusive; NS1 inh: 3%; SARS PLpro yeast: -5%; LASV entry inh: -1%; Cruzain Triton: 0.4%; RE007 growth inh: -8%

Results for Cc1ccc(OCCC(=O)OCC(=O)Nc2ccc(C)cc2Cl)cc1 ?
StopGo reporter: -2%; MARV entry inh: 1%; SARS PLpro yeast: -1%; LASV entry inh: 10%; RE007 growth inh: -11%

Results for COCCCNC(=O)CN1C(=O)CSc2ccc(S(=O)(=O)N3CCOCC3)cc21 ?
Cruzain inh noDet: 19%; StopGo reporter: 8%&-6%; NS1 inh: 21%; SARS PLpro yeast: inconclusive; LASV entry inh: -19%[46.1 µM]; Cruzain Triton: 5.1%; RE007 growth inh: -11%

What do the screens show for `N#Cc1c(Cl)nsc1NCCN1CCOCC1`?
StopGo reporter: -7%; MARV entry inh: -19%[46.1 µM]; NS1 inh: 0%; SARS PLpro yeast: -1%; LASV entry inh: 1%[46.1 µM]; RE007 growth inh: 9%

What do the screens show for `CCN1C(=O)C(CC(=O)Nc2ccc(F)cc2)N(Cc2ccco2)C1=S` (stereo not given)?
StopGo reporter: -10%; MARV entry inh: -5%; NS1 inh: 5%; SARS PLpro yeast: 0%; LASV entry inh: -2%; RE007 growth inh: -10%

What do the screens show for `COc1ccc(N2CCN(c3nc4c(c(=O)n(C)c(=O)n4C)n3CCCc3ccccc3)CC2)cc1`?
Cruzain inh noDet: inconclusive; StopGo reporter: -21%; MARV entry inh: -3%; NS1 inh: 1%; SARS PLpro yeast: 0%; LASV entry inh: inconclusive; Cruzain Triton: -3.6%; RE007 growth inh: 13%

What do the screens show for `Cc1noc(C)c1COC(=O)CN(C)S(=O)(=O)c1ccc(Cl)cc1`?
Cruzain inh noDet: -9%; StopGo reporter: 0%; MARV entry inh: inconclusive; NS1 inh: -4%; SARS PLpro yeast: -5%; LASV entry inh: -17%; Cruzain Triton: 1.5%; RE007 growth inh: 6%

How did Cc1ccc(S(=O)(=O)Cc2ccc(C(=O)N3CCN(c4cccc(Cl)c4)CC3)o2)cc1 do in these assays?
Cruzain inh noDet: 16%; StopGo reporter: -15%; MARV entry inh: inconclusive; LASV entry inh: inconclusive; Cruzain Triton: -9.7%

How did O=C1CN(S(=O)(=O)c2cccc(Cl)c2Cl)CCN1 do in these assays?
StopGo reporter: 11%; MARV entry inh: 2%; SARS PLpro yeast: -2%; LASV entry inh: -10%; RE007 growth inh: -10%

High-throughput results as filed in PubChem BioAssay.
